# Screening data from PubChem BioAssay.
# D2 ag: human D2 receptor agonism in beta-arrestin assay; DiscoveRx PathHunter D2 beta-arrestin, luminescence, 90 min; 100% = 57 uM dopamine signal; activation, % (concentration not given with the values); actives 0.084% (n = 360,000); AID 624465; in the data active = activation above about 40%; inconclusive = about 15% to 40%; inactive = below about 15%; also: compound concentration not given in the record; the text of the record calls up to 30% inactive
# Target sequence (P14416 whole entry, looked up): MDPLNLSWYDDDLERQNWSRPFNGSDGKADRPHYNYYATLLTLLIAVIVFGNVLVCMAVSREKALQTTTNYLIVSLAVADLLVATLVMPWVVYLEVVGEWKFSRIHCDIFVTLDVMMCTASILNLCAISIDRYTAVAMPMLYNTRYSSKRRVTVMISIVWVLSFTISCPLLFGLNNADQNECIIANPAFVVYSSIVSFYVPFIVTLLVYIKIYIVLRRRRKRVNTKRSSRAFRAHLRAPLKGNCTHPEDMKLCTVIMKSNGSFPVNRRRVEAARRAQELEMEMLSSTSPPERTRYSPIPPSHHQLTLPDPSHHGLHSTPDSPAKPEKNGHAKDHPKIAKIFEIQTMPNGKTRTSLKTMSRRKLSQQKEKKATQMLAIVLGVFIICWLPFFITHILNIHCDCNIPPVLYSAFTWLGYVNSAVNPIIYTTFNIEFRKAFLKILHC
#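 Agonist mode: compounds alone added to overnight-plated D2 PathHunter cells for 90 min at 37 C, with 57 uM final dopamine (EC100) defining full response. Beta-arrestin recruitment detected by chemiluminescent reagent, read after 1 h at ambient temperature.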
# CtBP-E1A blk: blocks the CtBP interaction with E1A | activity change, % (concentration not given with the values) | AID 651724 | AlphaScreen GST-E1A/His-CtBP binding, 1536-well; stronger effect = lower value; control for the full effect not named in the record | actives 0.49% (n = 340,000); in the data active means activity change below about -65%; inconclusive means about -30% to -65%; inactive means above about -30%; also: % is scaled to controls: 0 for no effect and ±100 for the full control effect
#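 GST-E1A and His-tagged CtBP (125 nM each as 5X stock) were preincubated with pin-transferred compound for 2 h at 37 °C in the dark, then glutathione donor and nickel acceptor beads were added for 1 h before AlphaScreen reading.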
# PINK1 modulator: changes PINK1 expression; actives 0.2% (n = 410,000); Potency, µM (highest dose often 76.6 µM), inactives show at the highest dose activation (PINK1 increase), actives largely listed as activators; PINK1 immunofluorescence, high-content cytometry, 24 h; AID 624263; active = well fitted activation curve with a large enough effect; inconclusive = small, poorly fitted or top-dose-only effect; inactive = flat fitted curve, though single readings scatter; cell line not stated here;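 also: potency is read from the fitted curve at half-maximal effect; % of control where 0% means no effect; nearly all actives have a fitted effect of over 65% in size; a mitochondrial uncoupler was the plate control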
#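 Stable cell line, 250 cells/well, 12 h attachment; compounds pinned at 5 concentrations, 24 h; CCCP control. Fixed with nuclear dye, primary antibodies 12 h at 10 degrees C, secondary plus cell stain; laser-scanning cytometer read.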
# D2 PAM: human D2 receptor positive allosteric modulation. DiscoveRx D2 beta-arrestin cells, luminescence, 90 min; 100% = 57 uM dopamine signal. AID 624464. potentiation, % (test concentration not listed). actives 0.23% (n = 360,000); active = potentiation of 50% or more; inconclusive = 30% to 50%; inactive = 30% or less;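 also: compound concentration not given in the record; tested on top of an EC20 dose of dopamine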
#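 D2 cells co-treated with compound plus 50 nM dopamine (EC20) for 90 min at 37 deg C to detect potentiation. Beta-arrestin recruitment was read as enzyme-fragment luminescence after 1 h at ambient temperature. Full response was set by 57 uM dopamine.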
# Six1-Eya2 inh: Six1/Eya2 interaction inhibition. actives 0.56% (n = 360,000). activity change, % (concentration not given with the values). AlphaScreen GST-Six1/His-Eya2 binding, biochemical; stronger effect = lower value; control for the full effect not named in the record. AID 651725; in the data active = activity change below about -65%; inconclusive = about -30% to -65%; inactive = above about -30%; also: % is scaled to controls: 0 for no effect and ±100 for the full control effect
#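 Homogeneous AlphaScreen proximity assay pairing GST-Six1 with His-tagged Eya2 (added as 5X mix: 250 nM and 500 nM) in 50 mM Tris pH 8.0, 300 mM NaCl, 1 mM TCEP. Glutathione donor and nickel acceptor beads; 1 h, 37 °C, dark.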
# TRPML1 ag: activates the human TRPML1 channel | Q9GZU1 | TRPML1-expressing cells, Ca2+ dye fluorescence, FDSS; host cell line not named in the record; reference of the full effect not given here | actives 0.12% (n = 410,000) | activation, % (concentration not given with the values); in the data active = activation above about 50%; inconclusive = about 30% to 50%; inactive = below about 30%; also: 0% is about no effect; the text of the record puts the active cut at 80%
# Target sequence (Q9GZU1 whole entry, looked up): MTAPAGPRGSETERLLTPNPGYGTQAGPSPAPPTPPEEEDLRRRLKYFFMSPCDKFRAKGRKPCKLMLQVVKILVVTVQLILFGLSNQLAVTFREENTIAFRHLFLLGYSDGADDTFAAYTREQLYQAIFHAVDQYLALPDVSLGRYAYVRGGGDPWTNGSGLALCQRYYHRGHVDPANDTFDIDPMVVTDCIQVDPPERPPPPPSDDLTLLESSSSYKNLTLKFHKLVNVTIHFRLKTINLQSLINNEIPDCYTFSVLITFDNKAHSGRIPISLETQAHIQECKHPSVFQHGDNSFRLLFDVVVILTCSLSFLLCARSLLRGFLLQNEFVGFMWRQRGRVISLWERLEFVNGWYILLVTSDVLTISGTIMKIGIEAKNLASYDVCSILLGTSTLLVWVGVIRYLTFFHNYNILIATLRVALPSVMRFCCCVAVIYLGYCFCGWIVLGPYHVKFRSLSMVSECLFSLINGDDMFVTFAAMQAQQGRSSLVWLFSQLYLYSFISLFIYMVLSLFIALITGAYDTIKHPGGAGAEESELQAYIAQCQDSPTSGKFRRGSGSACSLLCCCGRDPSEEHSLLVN
#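 In this qHTS format, compounds were pin-transferred onto Ca8-dye-loaded TRPML1-DL cells induced with Tet overnight, and intracellular Ca2+ fluorescence was recorded kinetically for 110 s after a 10 s baseline. A subsequent 4uM final 54-4 (EC80) addition followed by a second 110 s read served as the antagonist phase.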
# Starred values were filed as active, the others as inactive; ? = inconclusive; . = no result given; [ ] = remark or other dose. The order is random; overall some 1.3% were active at least once.
SMILES,D2 ag,CtBP-E1A blk,PINK1 modulator,D2 PAM,Six1-Eya2 inh,TRPML1 ag
O=C1C(=O)N(Cc2cccnc2)C(c2ccc(Br)cc2)/C1=C(\O)c1ccc2c(c1)OCCO2 (stereo not given),-5.1,1,-0.5%,-8,-1,-0.9
CC(C)C[C@H]1CN(CCCC[C@H]2CNC(=O)C(=O)N2Cc2ccccc2)C(=O)C(=O)N1CCC1CCCCC1,.,26,-0.2%,.,21,-0.9
CCOCCOc1cc(NCc2ccccc2)c2ncn(C(C)C)c2c1,5.9,-28,?,1,-27,-0.6
CC(C)(C)OC(=O)N1CCOCCOCCN(C(=O)OC(C)(C)C)CCOCCOCC1,0.0,8,-2.2%,-6,5,-0.4
Oc1c(Cl)cc(Cl)cc1CNc1ccc(Br)cn1,1.4,-75*,?,7,-70*,-0.7
CCn1c(SCc2cccnc2)nnc1-c1c[nH]c2ccccc12,-0.7,-4,0.6%,-1,2,-0.4
COc1ccc(OCC(=O)Nc2cc(S(=O)(=O)N3CCCCC3)ccc2OC)cc1,-5.2,9,-0.1%,-6,-28,-0.1
COc1ccccc1NC(=O)C(C)OC(=O)C(C)SCC(=O)Nc1ccc(C)cc1 (stereo not given),-3.1,8,1.1%,-20,-6,-0.8
COc1ccc(C(C(=O)NCC2CCCO2)N(C(=O)Cn2nnc3ccccc32)c2ccccc2C(C)=O)cc1OC (stereo not given),-0.7,-10,-1.2%,-1,21,-0.2
COc1ccc(N2CCC(CNC(=O)Nc3ccccc3)C2)cc1 (stereo not given),3.8,?,0.5%[38.3 µM],6,?,0.1
CCCc1cc(=O)oc2cc(OC(C)C(=O)NCc3ccccn3)c(Cl)cc12 (stereo not given),-0.5,-8,0.1%,-5,-1,0.5
COc1cccc2c(=O)c3c([nH]c12)OC(C)(C)C3,-0.3,15,2.5%,-2,-3,0.7
CC(N=C1NS(=O)(=O)c2ccccc21)C(=O)OCC(=O)N(C)C1CCS(=O)(=O)C1 (stereo not given),0.5,5,1.7%,1,1,2.3
COc1ccc(S(=O)(=O)Oc2ccccc2C(N)=O)cc1,-2.5,9,16%,7,0,6.1
O=C(Nc1nnc(-c2ccccn2)o1)c1ccc(Br)cc1,-2.2,?,-0.4%,-26,?,0.7
O=C(NC1CCCCCC1)c1cc(S(=O)(=O)N2CCC3(CC2)OCCO3)ccc1F,-1.2,-1,1.9%[38.3 µM],-12,0,0.7
CN(C)C(=O)c1ccc(NC(=O)CC2SC(N3CCCC3)=NC2=O)cc1 (stereo not given),-1.7,-24,0.3%,8,7,-0.3
CCN1CCN(c2ccc(S(=O)(=O)N3CCOCC3)cc2NC(=O)C(C)Oc2ccc(F)cc2)CC1 (stereo not given),4.3,2,0.7%,-7,0,-0.5
NNC(=O)C1SCCN1S(=O)(=O)c1ccc(Cl)cc1 (stereo not given),-6.0,.,1.7%,-15,0,0.1
CCCCOc1ccc(C2NC(=O)NC(C)=C2C(C)=O)cc1OCC (stereo not given),-5.6,.,0.7%,-11,-5,0.7
Cc1ccc(Cl)c(OCCCCN2CCC(C)CC2)c1,-2.1,7,-1.5%,-11,4,0.6
CCOCCCNC(=O)C(NC(=O)Cc1cccs1)c1ccccc1 (stereo not given),-1.2,6,-0.3%,-3,-3,0.1
O=C(CSc1nnc(NC(=O)C2CC2)s1)NCc1ccccc1Cl,-2.4,8,-0.1%,-7,0,-0.4
O=C1C=CC(=O)c2c(O)c(N3CCN(CCOCCO)CC3)c(Br)c(O)c21,-2.0,-26,-0.8%,-30,-69*,0.2
CC1CCCCC1NC(=O)CSc1nncs1 (stereo not given),2.1,2,-1.6%,1,5,0.4

# 2 entries picked at random from the list so far:
SMILES,D2 ag,CtBP-E1A blk,PINK1 modulator,D2 PAM,Six1-Eya2 inh,TRPML1 ag
CCn1c(SCc2cccnc2)nnc1-c1c[nH]c2ccccc12,-0.7,-4,0.6%,-1,2,-0.4
O=C1C=CC(=O)c2c(O)c(N3CCN(CCOCCO)CC3)c(Br)c(O)c21,-2.0,-26,-0.8%,-30,-69*,0.2

# Returning to the listing, repeating the 3 entries before the break.
SMILES,D2 ag,CtBP-E1A blk,PINK1 modulator,D2 PAM,Six1-Eya2 inh,TRPML1 ag
O=C(CSc1nnc(NC(=O)C2CC2)s1)NCc1ccccc1Cl,-2.4,8,-0.1%,-7,0,-0.4
O=C1C=CC(=O)c2c(O)c(N3CCN(CCOCCO)CC3)c(Br)c(O)c21,-2.0,-26,-0.8%,-30,-69*,0.2
CC1CCCCC1NC(=O)CSc1nncs1 (stereo not given),2.1,2,-1.6%,1,5,0.4
Cc1ncoc1C(=O)N1CCCC(C(=O)c2ccc3c4c(cccc24)CC3)C1 (stereo not given),-0.9,-6,1.5%,-2,-4,0.7
COc1cc(/C=N/NC(=O)c2ccc(N)cc2)ccc1OC(=O)c1cccc(C)c1,2.0,-3,0.9%,26,-7,0.4
COC(=O)C1=C(C)NC(=O)CC1c1ccccc1 (stereo not given),-2.6,4,-0.2%,-3,5,-0.7
O=C(NCc1cn2ccccc2n1)C1CCC(=O)N(Cc2ccccc2F)C1 (stereo not given),-0.8,.,2.3%,-5,9,0.6
CCN1CCN(S(=O)(=O)CC2(C)C3CCC2(C)C(=O)C3Br)CC1 (stereo not given),-2.6,7,0.5%,-1,16,0.1
O=C(O)CC1CCCC(c2ccccc2)C1=O (stereo not given),0.5,9,-2.0%[38.3 µM],-1,7,-0.1
Cc1ccccc1NC1=NS(=O)(=O)c2ccccc21,-0.6,12,-1.3%[38.3 µM],-12,4,-0.3
CC1(C)Cc2c(sc(NC(=O)C(=O)N3CCCCC3)c2C(=O)O)CO1,-2.7,.,0.1%,-8,6,0.3
O=C(CN(C(=O)c1nsc(Cl)c1Cl)c1cccc(F)c1)NC1CCCC1,-4.4,16,4.0%,-4,2,-1.8
COc1cc2c(C(=O)NCc3ccc4c(c3)OCO4)cn(CC(C)C)c(=O)c2cc1OC,-0.6,-2,2.0%,14,3,1.1
O=C1NC(c2ccc(Cl)c([N+](=O)[O-])c2)Nc2ccccc21 (stereo not given),0.9,-3,-2.1%,-8,0,1.2
CC1CCCC(C)N1C(=O)CSCc1ccc(Cl)cc1 (stereo not given),-2.9,4,4.9%[38.3 µM],-7,5,0.2
CN1CCC(C2(O)c3ccccc3CSc3sccc32)CC1 (stereo not given),-4.7,0,-1.1%,-27,-1,-0.2
O=C(c1cnsn1)N1CCN(c2ccccc2)CC1,-1.5,3,-1.0%,-6,2,0.0
Cc1occc1C(=O)Nc1cc(C(C)(C)C)on1,-1.9,-3,-1.8%[38.3 µM],-11,-3,-0.4
COC(=O)c1cc(C(=O)OCC(=O)N2CCCCC2)cc([N+](=O)[O-])c1,-0.9,-1,-2.4%,4,8,0.8
COc1ccc(CCNC(=O)C2CC(c3cc(C(F)(F)F)cc(C(F)(F)F)c3)=NO2)cc1 (stereo not given),-1.7,3,4.2%,3,3,-1.3
Cc1cc(C(=O)Cn2ncc(Cl)c(Cl)c2=O)c(C)n1CC(F)(F)F,-0.6,14,-2.0%,-32,-1,0.8
CC(C)(C)NC(=O)Cn1c(SCC(=O)NCc2cccs2)nc2ccccc21,-3.6,-1,2.1%[38.3 µM],1,3,1.0
CSc1ccc(OC2(C)CCN(Cc3ccc(-c4ccccn4)cc3)C2)cc1 (stereo not given),-3.6,?,22%,-14,-28,-0.5
CCCC(=O)Nc1ccc(C(=O)N/N=C/c2ccc[nH]2)cc1,-0.3,0,?,18,9,1.6
COc1ccc(Cc2noc(-c3ccc(OC)c(OC)c3)n2)cc1OC,1.1,-13,1.3%[38.3 µM],-1,-3,1.6
C[C@H](CO)N1C[C@H](C)[C@H](CN(C)Cc2ccncc2)OCc2ccccc2-c2c(n(C)c3ccccc23)C1=O,5.4,-5,-1.2%,16,-1,1.2
O=C(CN(c1ccccc1)S(=O)(=O)c1ccc(F)cc1)NC1CCS(=O)(=O)C1 (stereo not given),-1.8,5,3.4%,-7,8,0.3
CCC(C(=O)Nc1cccnc1)c1ccccc1 (stereo not given),0.6,.,1.4%,0,2,-0.6

# Look-ups from the results shown:
# O=C(O)CC1CCCC(c2ccccc2)C1=O (stereo not given) in Six1-Eya2 inh is listed with 7
# COc1cc(/C=N/NC(=O)c2ccc(N)cc2)ccc1OC(=O)c1cccc(C)c1 in D2 ag is listed with 2.0
# CCN1CCN(S(=O)(=O)CC2(C)C3CCC2(C)C(=O)C3Br)CC1 (stereo not given) in PINK1 modulator is listed with 0.5%
# C[C@H](CO)N1C[C@H](C)[C@H](CN(C)Cc2ccncc2)OCc2ccccc2-c2c(n(C)c3ccccc23)C1=O in D2 PAM is listed with 16
# Cc1ncoc1C(=O)N1CCCC(C(=O)c2ccc3c4c(cccc24)CC3)C1 (stereo not given) in D2 PAM is listed with -2
# CC1CCCC(C)N1C(=O)CSCc1ccc(Cl)cc1 (stereo not given) in D2 PAM is listed with -7

# Next part
SMILES,D2 ag,CtBP-E1A blk,PINK1 modulator,D2 PAM,Six1-Eya2 inh,TRPML1 ag
Cc1nc(-c2ccc(S(=O)(=O)Nc3cccc(S(N)(=O)=O)c3)s2)cs1,-3.9,9,0.3%,-3,-17,-0.5
C(=N\n1cnnc1)/c1ccc2c(c1)OCCO2,-1.4,3,-2.4%[38.3 µM],-8,3,0.9
Nc1ccc(N=Nc2ccccc2)cc1[N+](=O)[O-],-1.2,?,3.6%,-14,?,-1.4
Cc1sc2ncnc(N3CCC(C(=O)N(C)CC(=O)Nc4ccccc4Cl)CC3)c2c1C,0.1,0,0.1%,16,?,3.3
CC[C@]12C(=O)N(C)C[C@H]([C@@H]3C(=O)N(C)C(=O)[C@@H]31)N2C(=O)c1ccc(Cl)c(Cl)c1,-3.2,4,0.2%,1,1,-0.4
CC1(C)CC(NC(=O)c2cccc(S(=O)(=O)N(Cc3ccccc3)c3ccccc3)c2)CC(C)(C)N1,-5.3,-15,-3.6%,-20,-2,0.0
Cc1ccc(C)c(OCc2nnc(N)s2)c1,-1.2,2,2.6%,-3,-5,-0.5
O=C(OCc1nc2ccccc2s1)c1ccc(Br)s1,-1.8,58,16%[38.3 µM],2,39,3.8
COCCn1c(=O)[nH]c2cc(C(=O)NCCCN3CCN(c4ccc(F)cc4)CC3)ccc2c1=O,4.9,-10,-3.3%,-8,-2,-0.2
CC(C)(C)c1cc(CNC2CS(=O)(=O)C[C@@H]2O)cc(C(C)(C)C)c1O (stereo not given in full),-3.2,-1,-2.5%,-14,3,3.7
COc1cccc(C(=O)NC2CCN(C(=O)N3c4ccccc4Sc4ccccc43)CC2)c1,2.8,1,.,6,-16,-0.4
O=c1c2ccccc2cnn1Cc1n[nH]c(=S)n1-c1ccc(Cl)cc1,-2.0,-8,-2.4%,-17,-7,-0.5
C=CCNC(=O)/C(C#N)=C/c1c(N2CCCCCC2)nc2ccccn2c1=O,-2.1,.,1.9%,-5,-14,3.2
NS(=O)(=O)c1ccc(NC2(C(=O)O)CCCC2)cc1,-1.4,-8,-0.3%,-6,-4,1.0
